VDR inhibitor = inhibitors of human vitamin D receptor. P11473. VDR-SRC2-3 peptide fluorescence polarization, 2 h. Potency, µM, inactives show max response, negative = inhibition, actives largely listed as inhibitors. actives 0.93% (n = 400,000). AID 504847; active means well fitted inhibition curve with a large enough effect; inconclusive means small, poorly fitted or top-dose-only effect, or another doubt; inactive means no such curve, though single readings can be large or run the other way; further: series mostly up to about 120 µM
Target sequence (P11473 whole entry, looked up): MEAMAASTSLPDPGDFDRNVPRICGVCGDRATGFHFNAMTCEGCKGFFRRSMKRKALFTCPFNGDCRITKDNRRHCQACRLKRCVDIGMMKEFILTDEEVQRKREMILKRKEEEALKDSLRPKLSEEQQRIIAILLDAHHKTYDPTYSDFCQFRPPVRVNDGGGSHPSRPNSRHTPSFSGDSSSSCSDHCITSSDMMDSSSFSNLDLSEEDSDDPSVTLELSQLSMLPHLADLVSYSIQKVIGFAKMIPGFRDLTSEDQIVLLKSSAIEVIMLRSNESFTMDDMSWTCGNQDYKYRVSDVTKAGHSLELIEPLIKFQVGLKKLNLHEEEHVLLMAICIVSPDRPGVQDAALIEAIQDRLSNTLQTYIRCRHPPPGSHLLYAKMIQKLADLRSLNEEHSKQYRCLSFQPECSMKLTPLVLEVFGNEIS
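Measured by FP: displacement of SRC2-3 coactivator peptide from VDR by library compounds, following a two-hour ambient incubation.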
Active calls of the source: *; ? = inconclusive; & = joins results of further samples; [ ] = another dose, or the depositor's remark. On the % scale 0 is the no-effect control and ±100 the full control effect; potency means the concentration at half of the fitted maximal effect. These rows are one share of the data, so the mix of outcomes need not match the whole.

VDR inhibitor	structure
-20.3%	Cc1cccc(OCC(=O)Nc2ccc3c(c2)nc(CCN2CCN(c4ccccn4)CC2)n3C)c1
-16.4%	CCCCn1c(=O)[nH]c(=O)c2c1nc(-c1ccccc1F)n2Cc1ccccc1OC
1.5%	Cc1cc(C)cc(-n2nnc(C(=O)NCc3ccc(Cl)cc3)c2N)c1
3.4%	NC(=O)c1ccc(C2SCC(=O)N2CCc2ccccc2)cc1 (configuration not stated)
-11.1%	O=C(COC(=O)Cc1ccc(Cl)c(Cl)c1)Nc1ccc2[nH]c(=O)[nH]c2c1
?	CC1CCC(O)C/C1=C\C=C1/CCCC2(C)C1CCC2C(C)/C=C/C(C)C(C)C (configuration not stated)
-1.4%	Cc1ccc(NC(=O)CN2CCCC2)c2c1CC(C)(C)O2
2.6%	COc1cc(C(=O)NNC(=S)NC(=O)c2ccc(F)cc2)cc(OC)c1OC
5.7%	N#Cc1cccc2c1-c1ccccc1/C2=N/NC(N)=O
4.0%	CN(C)c1ccc(CN(C(=O)c2ccco2)C2CCS(=O)(=O)C2)cc1 (configuration not stated)
4.2%	CC(=O)c1cc(C(=O)N2CCc3c([nH]c4ccccc34)C2C2CCCCC2)[nH]n1 (configuration not stated)
-2.7%	Cc1nc2cc(NC(=O)NCc3ccccc3)ccc2o1
11.7%	CCOC(=O)C[N+](CC)(CC)CC#Cc1ccccc1
-9.9%	CCC1COC(c2cccn2Cc2ccccc2Cl)=N1 (configuration not stated)
-4.3%	O=C(Nc1nc2cc3c(cc2s1)OCO3)c1ccc(N2C(=O)CCC2=O)cc1
2.0%	Cc1cnc(NC(=O)CCNC(=O)c2ccccc2Cl)s1
-5.4%	COc1ccc2c(c1OC)C(=O)OC2CC(=O)c1ccc2c(c1)OCO2 (configuration not stated)
8.1%	O=C(NCc1cccc(Cl)c1)C1CCCN(c2ncnc3onc(-c4ccc(F)cc4)c23)C1 (configuration not stated)
11.3%	O=C(NCc1ccccc1)NC1(C(=O)N2CCCC2)CCCCC1
22.5%	COc1ccc(C(=O)Nc2ccc3nc(C)c(C)nc3c2)cc1
-6.2%	CCN1CCCC1CNCc1ccc(Cl)cc1Cl (configuration not stated)
3.3%	O=C(CN1CCN(Cc2ccc(Cl)cc2)C1=O)NCCN1CCCC1
-5.6%	O=C(Cc1cccc(NC(=O)C2CCN(C(=O)c3ccccc3)CC2)c1)Nc1cccc(C(=O)N2CCCC2)c1
3.0%	CC(=O)NCCNc1ncnc2ccc(-c3ccccc3Cl)cc12
-2.4%	C=C(C)C(=O)Oc1ccc(N2C(=O)[C@@H]3C4C=CC(C4)[C@@H]3C2=O)cc1
-13.2%	O=C(O)CCC(=O)N1N=C(c2ccccc2)CC1c1ccc(Br)cc1 (configuration not stated)
-7.9%	O=C(Nc1cccnc1)C1COc2ccccc2O1 (configuration not stated)
-6.4%	CC(=O)c1cn(CCOc2ccccc2C)c2ccccc12
0.4%	OCC1OC(c2ccccc2)OC2COC(c3ccccc3)OC12 (configuration not stated)
1.5%	COc1ccccc1OCc1nnc(SCC(=O)Nc2nnc(C3CC3)s2)n1C

The results go on:
VDR inhibitor	structure
2.4%	COc1ccc(CNC(=O)C2CSC(c3ccc(OC)cc3)N2C(C)=O)cc1 (configuration not stated)
2.4%	O=C(C[n+]1cccc(C(=O)Nc2ccccc2)c1)c1ccc([N+](=O)[O-])cc1
-1.6%	COC(=O)C1=C(C)N(CCc2cc(OC)c(OC)c(OC)c2)C(=O)N[C@H]1c1cccs1
1.2%	CC(C)Nc1nc2c(-c3cccc(Br)c3)nnn2c2ccccc12
-13.6%	CCOC(=O)c1sc(N)nc1C(F)(F)F
-1.9%	COCCCn1c(SCC(=O)NNC(=O)c2cccc(O)c2)nnc1-c1ccncc1
3.9%	O=C(COC(=O)c1ccc([N+](=O)[O-])s1)NNC(=O)c1ccccc1
-5.9%	O=c1[nH]c2ccc(NC(=S)Nc3ccc(Cl)cc3Cl)cc2[nH]1
-3.9%	COc1ccc(CCNC(=O)CN2CCN(c3cccc(Cl)c3)CC2)cc1OC
17.1%	COc1ccc(NC(=O)CCCNC(=O)Cn2cnc3sc(C)c(C)c3c2=O)cc1OC
-13.1%	Cc1ccc(-c2nc3c(Cl)cc(Cl)cc3c(=O)n2O)cc1
16.7%	N#Cc1c(N)nc(SCc2ccncc2)c(C#N)c1-c1cccs1
8.6%	CCN1C(=O)CC(N2CCOCC2)C1=O (configuration not stated)
-10.4%	Cc1cccc[n+]1CC(=O)c1ccc(Cl)cc1
0.2%	COc1ccc(CNC(=O)c2ccc(Br)s2)cc1OC
2.1%	CCN(CC)C(=O)c1sc2c(c1C)c(=O)n(Cc1ccccc1)c(=O)n2Cc1ccccc1C
5.2%	C/C(N)=C(/C#N)C(=O)CSc1nc2ccccc2n1CC(C)C
13.5%	O=C(NCc1ccco1)c1cccc(N2CCCC2=O)c1
-8.1%	CCOC(=O)N1CCC(NC(=O)CCc2ccccc2)CC1
-15.4%	OCCCn1c(CCNc2nc(-c3ccc(Cl)cc3)cs2)nc2cc(C(F)(F)F)ccc21
2.5%	CN(C)S(=O)(=O)N1CCN(c2ccnc3cc(Cl)ccc23)CC1
-1.2%	CCC(=O)c1cc(Br)ccc1OCC(=O)N1CCN(S(=O)(=O)c2ccccc2)CC1
-7.0%	O=c1c2ccccc2cnn1-c1ccc(Br)cc1
14.8%	CCN(CC)c1ncnc2sc(C(=O)N3CCN(c4ccc(OC)cc4)CC3)c(C)c12
-10.2%	CCOC(=O)N1CCN(c2c(NCCc3ccccc3)c(=O)c2=O)CC1
2.9%	CCOc1cccc(C2C(C(=O)c3cccs3)=C(O)C(=O)N2Cc2cccnc2)c1 (configuration not stated)
-19.2%	Cn1nccc1C(=O)NC1CCN(Cc2ccccc2)CC1
-20.0%	Cc1ccc(N2C(=O)[C@@H]3C(c4cccnc4)=NO[C@@H]3C2=O)c(C)c1
-1.6%	CN1CCC(NC(=O)c2cc(-c3cccc(Br)c3)nc3ccccc23)CC1
-1.4%	CC(=O)N1CCc2cc(S(=O)(=O)NCCC(=O)Nc3cccc(C)c3)ccc21

Structural class: the entries above containing fluorine
VDR inhibitor	structure
-16.4%	CCCCn1c(=O)[nH]c(=O)c2c1nc(-c1ccccc1F)n2Cc1ccccc1OC
2.6%	COc1cc(C(=O)NNC(=S)NC(=O)c2ccc(F)cc2)cc(OC)c1OC
8.1%	O=C(NCc1cccc(Cl)c1)C1CCCN(c2ncnc3onc(-c4ccc(F)cc4)c23)C1 (configuration not stated)
-13.6%	CCOC(=O)c1sc(N)nc1C(F)(F)F
-15.4%	OCCCn1c(CCNc2nc(-c3ccc(Cl)cc3)cs2)nc2cc(C(F)(F)F)ccc21

2 records drawn at random from those above, as already listed:
VDR inhibitor	structure
-19.2%	Cn1nccc1C(=O)NC1CCN(Cc2ccccc2)CC1
4.2%	CC(=O)c1cc(C(=O)N2CCc3c([nH]c4ccccc34)C2C2CCCCC2)[nH]n1 (configuration not stated)

Remaining list, next part:
VDR inhibitor	structure
-6.1%	Cc1cccn2c(=O)c3cc(C(=O)NCCN4CCOCC4)c(=N)n(CCc4ccccc4)c3nc12
3.8%	O=C(Nc1sc2c(c1C(=O)Nc1ccc(Cl)cc1)CCCC2)c1cccs1
6.0%	O=C(CSc1nnc(-c2ccccn2)o1)Nc1ccccc1
-16.0%	Cc1cc(C)n2c(SCC(=O)Nc3cc(S(=O)(=O)N(C)C)ccc3C)nnc2n1
-8.0%	CN(CC(=O)Nc1c(Cl)cccc1Cl)C(=O)c1cccc(S(=O)(=O)NCc2ccccc2)c1
3.7%	COC(=O)c1nc2cc(C)ccn2c1F
-18.8%	Cc1cc(-c2ccccc2)n(-c2cc(N/N=C/c3ccccc3O)ncn2)n1
-17.4%	CCOC(=O)N1C2=NC(C(=O)OC)=C(C(=O)OC)[C@@H]3N(C)c4ccccc4[C@]23C[C@H]1C(=O)OC
-0.1%	COC(C[C@@H]1O[C@H]1[C@@H](O)[C@@H](C)OCc1ccccc1)OC
-9.5%	CCOc1ccccc1NC(=O)Cn1cnc2c(nnn2-c2cccc(OC)c2)c1=O
14.5%	Nc1nc(COc2ccc(F)cc2Cl)nc(N2CCCCC2)n1
?	CSC1=NSC2=NC(=O)/C(=C\c3coc4ccccc4c3=O)C(=N)N12
-20.0%	CCOC(=O)c1cc(-c2cccc(C(F)(F)F)c2)nc2nc(SC)[nH]c(=O)c12
-3.9%	CCO[C@@H]1OC(C(=O)N2CCCCCCC2)=C[C@H](c2ccc3c(c2)OCO3)[C@H]1CCCO
-9.6%	Cc1ccc(C(=O)CSc2nnc(COc3cccc(C)c3)o2)cc1
-1.4%	Cc1cc(C(=O)OCC(=O)NC2CCC(C)CC2)c(C)o1 (configuration not stated)
4.9%	CC1=CS(=O)(=O)CC1SC(=S)N(C)C1CCS(=O)(=O)C1 (configuration not stated)
-1.0%	COc1ccc2[nH]c(=O)c(-c3noc(-c4ccccc4)n3)cc2c1
-0.1%	Cc1cc(NC(=O)/C=C/c2ccccc2Cl)n(-c2nc3ccccc3[nH]2)n1
-10.4%	COc1cc(Cl)c(NC(=O)c2cc(CN3CCCC3)on2)c(OC)c1
10.8%	COC(=O)c1ccccc1NC(=O)COC(=O)c1ccc(C)c(NC(=O)c2ccco2)c1
-16.2%&9.1%	COc1cc2nc(Nc3cccc(F)c3)nc(N)c2cc1OC
31.1%[activator]	CCNc1cc(=O)n(C)c(=O)n1C
?	CNc1nc(-c2ccc3c(c2)CCN3S(=O)(=O)c2ccccc2)c(C)s1
15.3%	O=C(c1cc(Cl)cc(Cl)c1)N1CCC(=O)N(C(COCc2ccccc2)Cc2ccccc2)CC1 (configuration not stated)
-4.4%	O=C(Nc1nncs1)c1cccnc1Cl
?	CC1CCN(C(=O)CSc2c3c(nc4cc(Cl)ccc24)CCCC3)CC1
7.5%	N#Cc1nc(Cc2ccccc2)oc1N1CCC(C(N)=O)CC1
-16.5%	CSCCC(N=C1NS(=O)(=O)c2ccccc21)C(=O)NCc1ccccc1F (configuration not stated)
-4.6%	CC(=O)c1c(C)[nH]c(C(=O)OCC(=O)NCCCc2ccccc2)c1C

Carrying on.
VDR inhibitor	structure
15.2%	CC1(C)CC2CC(C)(CN2C(=O)COC(=O)Cn2[nH]c(=O)c3ccccc3c2=O)C1 (configuration not stated)
-17.6%	COc1ccccc1C(=O)NC(CCSC)C(=O)NCCCn1nc(C)cc1C (configuration not stated)
-4.5%	COc1cccc(-n2cc(C(=O)Nc3cc(C)c(Cl)cc3OC)c3ccccc3c2=O)c1
0.8%	Cc1ccc(C(=O)Oc2coc(CSc3nnc(NC(=O)c4cccs4)s3)cc2=O)cc1C
13.4%	Cc1ccc(NC(=O)Nc2ccc3c(c2)CCC3)c(C)c1
?	CC(C)COc1cc(=O)[nH]c(SCC(C)C)n1
-22.2%	COc1ccc(NC(=O)CCc2nc3cccnc3n2-c2ccccc2)c(OC)c1
1.1%	C=CCOc1ccc(/C=C2\SC(=Nc3cccnc3)NC2=O)cc1
21.7%	O=C(O)c1ccc2c(=O)n3cc(C(=O)c4ccccc4O)cc(Cl)c3nc2c1
-2.6%	O=C(Nc1ccc2nn(-c3ccccc3)nc2c1)c1ccc2c(c1)OCO2
-6.9%	O=C(CCC(=O)N(CC(=O)NC1CCCCC1)CC1CCCO1)Nc1nccs1 (configuration not stated)
-10.0%	COc1ccccc1N1CCN(C(=O)c2ccc3c(c2)N(Cc2ccccc2)C(=O)c2ccccc2S3(=O)=O)CC1
3.2%	CCN(CC(=O)Nc1ccc2c(c1)OCCO2)C(=O)/C=C/c1cccc(Br)c1
0.3%	COc1ccc(OC)c(/C=N/N=C(\N)c2nonc2N)c1
17.8%	CCCN(C(=O)Cn1nc(C)c([N+](=O)[O-])c1C)c1c(N)n(Cc2ccccc2)c(=O)[nH]c1=O
-20.9%	COc1ccc(C2N(C(=O)N(C)C)CCN2S(=O)(=O)c2ccc(OC)cc2)cc1 (configuration not stated)
23.3%	O=C(NC(=S)Nc1ccc2c(c1)OCCO2)c1ccccc1F
?	Cc1ccc(-c2ccc(C3C(C#N)=C(N)Oc4n[nH]c(C)c43)o2)cc1 (configuration not stated)
-1.7%	COCCn1c(SCC(=O)Nc2cccc(F)c2)nc2c([nH]c3ccccc32)c1=O
1.2%	COc1ccc(-c2noc(CC(=O)N(C)c3ccccc3F)n2)cc1
10.3%	COC(=O)C(N)Cc1ccc(O)cc1 (configuration not stated)
-25.3%	COc1ccc(C(CNC(=O)c2ccc(S(=O)(=O)N(C)C)cc2)N2CCCC2)cc1 (configuration not stated)
-10.5%	N#Cc1cnc2sc3ccccc3n2c1=N
-1.5%	COc1ccc(-n2c(=O)[nH]c3cc(C(=O)NCCc4ccc(OC)c(OC)c4)ccc3c2=O)c(OC)c1
14.0%	Cc1cc(C)cc(NC(=O)CSc2nnc(CNC(=O)c3ccco3)o2)c1
-21.0%	Cc1cc(C(C)(C)C)cc(C)c1Cn1c2[n+](c3ccc(C(F)(F)F)cc31)CCCCC2
13.4%	COc1ccc(Cl)cc1NC(=O)CSc1ccc(-c2sc(C)nc2C)nn1
1.3%	CN1C(=O)C2C=CC1C1C(=O)N(c3ccccc3)C(=O)C21 (configuration not stated)
-29.5%	O=C(NCc1ccccc1F)C1CCCN(S(=O)(=O)c2ccc(-n3cnnn3)cc2)C1 (configuration not stated)
14.8%	Cc1cccc(-n2c(=O)c3c(c4cc(C)ccc4n3C)n(CC(=O)N3CCCC3)c2=O)c1
-10.8%	CCS(=O)c1scc(-c2ccc(Cl)cc2)c1C#N (configuration not stated)
2.1%	Cc1ccc(NC(=O)C(Cc2ccccc2)n2cccc2)cc1C (configuration not stated)

Given as labelled records: part of the list above
smiles: CC(C)COc1cc(=O)[nH]c(SCC(C)C)n1
- VDR inhibitor: ?

smiles: COc1ccc(NC(=O)CCc2nc3cccnc3n2-c2ccccc2)c(OC)c1
- VDR inhibitor: -22.2%

Screening results: PubChem, National Center for Advancing Translational Sciences (NCATS)
